Mtb hypoxia rep: PubChem AID 1159583; fluorescence inhibition, % (concentration not given with the values); M. tuberculosis hypoxia-regulated fluorescent reporter, fluorescence; 300,000 tested, 0.1% active;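 active = 35 to 45% if threefold the growth effect, above 45% if 1.5-fold the growth effect; inactive = the rest, general growth blockers included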;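 note: wells of about 50 µL received 100 nL stock; 0% = vehicle wells and 100% = reference inhibitor wells; whole bacteria with a GFP reporter of the hypoxia response; strong numbers were not always called active; many hits fall short of the cut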
Autofluor counter: flagged as autofluorescent in microsphere protease counterscreen; compound autofluorescence counterscreen, microsphere flow cytometry; stronger effect = higher value; fluorescence intensity (concentration not given with the values); 360,000 tested, 3.1% active; AID 624483;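 active = at least 3 SD above the mean of all compounds, about 16000 in these data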;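 note: 100 nL of 1 mM stock went into each well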
Sa ugtP lethal: growth inhibition of ugtP-null S. aureus, primary screen, RN4220 ugtP deletion, OD600; 16 h; some inactives read as strong as hits; growth inhibition, % (concentration not given with the values); 330,000 tested, 0.54% active; AID 1259309, 2017;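 active = z-score under -3 and OD600 up to 0.15 on both plates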;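 note: plate controls were untreated wells for no effect and antibiotic for full effect; wells of about 80 µL received 100 nL stock; the first replicate is given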
RN4220 kill: growth inhibition of S. aureus RN4220, primary screen, OD600; 16 h; inhibition, % (concentration not given with the values); 330,000 tested, 0.33% active; AID 1259311, 2017;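 active = z-score of -3 or lower and OD600 up to 0.18 on both plates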;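 note: plate controls were untreated cells for no effect and reference antibiotic for full effect; stock transfer was 100 nL into about 80 µL; one replicate is shown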
BJeLR lethal: MLPCN primary cell-based screen for lethality selective to Ras in HRASV12 cells; BJeLR (HRASV12) viability, CellTiter-Glo ATP luminescence, 48 h; reference of the scale not given here; inhibition, % (no concentration beside the values); 300,000 tested, 0.17% active;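 active = replicate mean above 50%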;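 note: 50 nL library stock added to about 25 µL; numbers are from one replicate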
PrP UTR inh: inhibition of PrP 5' UTR reporter expression; 340,000 tested, 0.35% active; cell-based PrP 5' UTR mRNA reporter, plate reader; inhibition, % (test concentration not listed); AID 488862, 2010;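 active = every replicate at 50% or more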;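 note: 0 = median of the neutral control wells; tested in H4 reporter cells; numbers are from one replicate; inactives centre near -14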
Mtb hypoxia rep growth: second read-out of Mtb hypoxia rep, no call of its own (marks repeat the call); growth inhibition, %; measured here: M. tuberculosis growth (absorbance);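 0% = vehicle and 100% = reference antibiotic; read after six days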
The depositor's hits bear a star; nt = no result given; & = joins results of further samples.

compound	PrP UTR inh	Sa ugtP lethal	RN4220 kill	BJeLR lethal	Mtb hypoxia rep	Mtb hypoxia rep growth	Autofluor counter
CCC(C(=O)Nc1ccncc1)c1ccccc1 (stereo not drawn)	-13	1	1.2	6	6	-6	2726
CC(C)(C)c1nc2scc(-c3ccc(Cl)cc3)c2c(=O)o1	-7	15	-0.2	3	nt	nt	3771
O=C(C1CCC1)N1CCc2cc(S(=O)(=O)NC3CCCc4ccccc43)ccc21 (stereo not drawn)	-7	-2	4.0	4	0	6	5239
Nc1nc(Nc2ccccc2F)nc(N2CCCC2)c1[N+](=O)[O-]	-47	-2	4.7	6	0	10	3757
CCN(CC(F)(F)C(F)F)S(=O)(=O)c1ccc(NC(=O)OC)cc1	-12	1	5.8	-8	8	6	3731
CC(C)c1ccc(S(=O)(=O)/N=C2\C=C(NS(=O)(=O)c3ccccc3)C(=O)c3ccccc32)cc1	-16	-5	14	7	20	6	4908
O=C1CSC(c2ccccc2Br)N1c1ccc(Cl)cn1 (stereo not drawn)	-12	-1	29	22	3	2	4072
CCOc1ccc(-c2c(C(=O)N/N=C/C3CCCCC3)nnn2-c2nonc2N)cc1	3	nt	nt	3	nt	nt	5035
CCOc1ccc(CCNC(=O)CCC(=O)N2CCOc3ccccc32)cc1OCC	-7	16	25	-10	1	5	6524
O=C(CC1SCCNC1=O)Nc1cccc([N+](=O)[O-])c1 (stereo not drawn)	-10	5	2.0	-1	2	7	4441
Cc1cc(C)n2c(-c3ccccc3Cl)nnc2n1	-16	-2	2.2	11	7	2	7441
O=C(Oc1cccc2cccnc12)c1cccc(-n2cnnn2)c1	-31	-2	6.5	-1	1	-4	4628
Fc1ccc2c(c1)C1OCCCC1C(c1ccccc1)N2 (stereo not drawn)	-17	23	0.0	-9	12	-1	3016
CCOc1cc(C2C(C(=O)OC(C)C)=C(C)NC3=C2C(=O)CCC3)cc([N+](=O)[O-])c1O (stereo not drawn)	-24	-1	1.9	-3	2	-3	5534
CC(=O)NC(Cc1c[nH]c2ccccc12)C(=O)O (stereo not drawn)	0	2&10	2.9&-0.3	-2	5	11	5376
COc1ccc(C2CCCN2C(=O)c2cccs2)cc1 (stereo not drawn)	-13	7	4.9	-12	14	7	3383
CC(C)C(C(=O)C=[N+]=[N-])N1C(=O)c2ccccc2C1=O (stereo not drawn)	-22	13	3.9	-3	nt	nt	3798
O=C(COc1ccc(Cl)cc1Br)Nc1ccncc1	-53	1	9.6	13	18	0	3891
Cc1ccc(C(c2c(C)n(C)n(-c3ccccc3)c2=O)c2c(C)n(C)n(-c3ccccc3)c2=O)s1	-5	-5	0.8	-12	-5	0	2182
Cc1ccc(-c2cc(C(=O)N3CCN(C(=O)c4ccco4)CC3)[nH]n2)c(C)c1	-3	3	4.4	-2	-3	8	5143
CC1(C)Oc2ccc(C(=O)NN=Cc3ccc(O)cc3)cc2NC1=O	nt	6	2.1	nt	3	-6	nt
Cc1noc(NS(=O)(=O)c2ccc(N3CC(O)=C(c4ccccc4)C3=N)cc2)c1C	-21	5	-9.1	4	-2	-5	2445
CCC(=O)N1N=C(c2ccc(C)o2)CC1c1ccc(Br)cc1 (stereo not drawn)	-14	-4	12	-17	nt	nt	2101
COc1ccc(N(CC(=O)N2CCN(c3ccc(F)cc3)CC2)S(=O)(=O)c2c(C)n[nH]c2C)cc1	-17	7	7.0	-4	10	1	4154
O=c1[nH][nH]cc1C=Nc1cc(Cl)ccc1O	-21	2	5.0	-9	19	17	2283
CCC(C(=O)NC1CCCC1)N(Cc1ccccc1Cl)C(=O)c1snc(C(N)=O)c1N (stereo not drawn)	7	-5	0.9	-2	-27	-29	4779
CCn1cc(C(=O)O)c(=O)c2cc(F)c(N3CCN(C(=S)NC(=O)c4ccc(OC)cc4)CC3)cc21	-10	99*	99*	3	-8	-3	5474
CCCCN(CCCC)S(=O)(=O)c1ccc(SCC(=O)OCC)c([N+](=O)[O-])c1	-25	39	-1.9	1	5	10	9732
CC(C)c1ccc(CCNC(=O)CSC(=S)N2CCCC2)cc1	-25	13	2.2	-4	1	4	14409
COc1ccc(-n2nc(C(=O)NCC(=O)N3CC(C)CC(C)C3)c3ccccc3c2=O)cc1OC (stereo not drawn)	-8	7	4.4	-10	-4	8	5609

Filtered by structure, those above with an aryl methoxy group (4)
compound	PrP UTR inh	Sa ugtP lethal	RN4220 kill	BJeLR lethal	Mtb hypoxia rep	Mtb hypoxia rep growth	Autofluor counter
COc1ccc(C2CCCN2C(=O)c2cccs2)cc1 (stereo not drawn)	-13	7	4.9	-12	14	7	3383
COc1ccc(N(CC(=O)N2CCN(c3ccc(F)cc3)CC2)S(=O)(=O)c2c(C)n[nH]c2C)cc1	-17	7	7.0	-4	10	1	4154
CCn1cc(C(=O)O)c(=O)c2cc(F)c(N3CCN(C(=S)NC(=O)c4ccc(OC)cc4)CC3)cc21	-10	99*	99*	3	-8	-3	5474
COc1ccc(-n2nc(C(=O)NCC(=O)N3CC(C)CC(C)C3)c3ccccc3c2=O)cc1OC (stereo not drawn)	-8	7	4.4	-10	-4	8	5609

Remaining list, next part.
compound	PrP UTR inh	Sa ugtP lethal	RN4220 kill	BJeLR lethal	Mtb hypoxia rep	Mtb hypoxia rep growth	Autofluor counter
Cc1ccccc1S(=O)(=O)c1c(C)cc(C)n(C(C)C)c1=O	-20	-14	1.6	4	0	9	4575
COc1ccc(NC(C)=[N+](C)CCNS(=O)(=O)c2ccc(Cl)cc2)cc1Cl	-6	4	2.5	4	5	2	5092
CCCN1CCC(=O)N(C(CN=[N+]=[N-])CC(C)C)CC1 (stereo not drawn)	nt	1	0.5	nt	-1	1	nt
CSc1cccc(CN2CCCC(CO)(Cc3cccc(Cl)c3)C2)c1 (stereo not drawn)	-17	1	-2.2	-2	1	1	5922
CC(Sc1nc2c(c(=O)[nH]1)CCCC2)C(=O)Nc1ccccc1C#N (stereo not drawn)	-9	0	1.5	-10	2	13	5305
Cc1cc(NC(=O)c2ccc(Br)c(S(=O)(=O)N3CCCC3)c2)no1	-25	6	6.2	7	9	6	6708
COCCCNCCCCSc1ccc(Cl)cc1	-2	4	1.8	-4	nt	nt	2075
CC(C)(C)OC(=O)N[C@@H](Cc1ccccc1)C(=O)N1CCC(C(=O)N[C@@H](Cc2c[nH]c3ccccc23)C(=O)O)CC1	-6	-3	2.4	-12	12	18	2936
Cn1c(OCc2cccnc2)nc2c1c(=O)n(Cc1ccccc1)c(=O)n2C	-3	3	-3.5	-3	nt	nt	2752
O=C(CN1CCc2ccccc21)NC(=O)NC1CCCCC1	-9	-3	0.4	3	-3	-8	4066
COc1ccc(NS(=O)(=O)c2ccc(N3CCOCC3)c(NC(=O)c3cccc(F)c3)c2)cc1	-13	7	1.7	6	0	7	2275
C=CCN1c2ccccc2[C@]23C[C@@H](C(=O)OC)N(C(=O)NC4CCCC4)C2=NC(C(=O)OC)=C(C(=O)OC)[C@H]13	-14	nt	nt	-11	nt	nt	3785
O=C(Nc1nc2ccccc2n1CCN1CCOCC1)c1ccccc1	-41	3	2.4	8	17	7	3061
O=C1C2C3C=CC(CC3)C2C(=O)N1c1cccc(C(F)(F)F)c1 (stereo not drawn)	-16	0	3.2	-7	10	5	3190
Cc1c(OCC(=O)NC(Cc2ccc(Cl)cc2)C(=O)O)ccc2c3c(c(=O)oc12)CCC3 (stereo not drawn)	-14	5	-0.5	-9	nt	nt	3840
CCC1=Nc2cc(C(=O)NCC3CCCO3)ccc2Sc2ccc(Br)cc21 (stereo not drawn)	-39	nt	nt	-2	nt	nt	4175
COc1cccc(C=Nc2ccc3c(c2)CCC3)c1O	-26	-2	1.2	3	21	13	3036
CCCCN1CCCCC1C(=O)Nc1c(C)cccc1C (stereo not drawn)	8	0	2.1	nt	4	-3	5797
Cc1ccc2nc3c(cc2c1)CC1(C(=O)N(C)C(=O)N(C)C1=O)C1CCCCN31 (stereo not drawn)	-44	0	5.6	1	3	6	8845
Nc1ccccc1Sc1ccc(C(=O)c2ccccc2C(=O)O)cc1[N+](=O)[O-]	-10	3	0.2	3	3	8	nt
COc1ccc(NC(=O)C2CCC(=O)N2C(=O)OCc2ccccc2)cc1 (stereo not drawn)	-21	7	3.4	-7	-4	-6	4324
COc1cc(O)c(C(CCN2CCOCC2)c2ccc3c(c2)OCO3)c(OC)c1 (stereo not drawn)	-20	0	-0.1	2	18	16	3868
Cc1cc(C)cc(C(=O)N/N=C/c2ccoc2)c1	-10	nt	nt	2	nt	nt	5656
CCOC(=O)c1ccc(NCc2nc3ccccc3[nH]2)cc1	-52	-13	-18	0	4	12	5388
Cn1c(CNC(=O)Nc2ccccc2Cl)nnc1SCc1ccccc1	-10	2	-8.5	10	nt	nt	4931
NC(=O)CSc1nc2c(sc3ccccc32)c(=O)n1CCCC(=O)NCC1CCCO1 (stereo not drawn)	-10	0	0.4	-1	4	3	4729
Cn1cc(C2CC(c3ccccc3)=NN2C(=O)c2ccccc2)c2ccccc21 (stereo not drawn)	-2	4	-1.9	-15	0	5	10575
Oc1ccc(C=NNc2cccc(Cl)n2)c(O)c1	nt	-1	3.2	nt	8	3	nt
O=C(CSc1n[nH]c(-c2cccs2)n1)N1CCCc2ccccc21	-19	-2	5.1	-14	2	9	10646
CCN(CC(=O)Nc1cc(Cl)ccc1C)c1ncnc2sc(C)c(C)c12	-18	19	3.3	1	9	0	2362

(continued)
compound	PrP UTR inh	Sa ugtP lethal	RN4220 kill	BJeLR lethal	Mtb hypoxia rep	Mtb hypoxia rep growth	Autofluor counter
Cc1ccc(S(=O)(=O)N2CCC(N3CCCCCC3)CC2)cc1	-9	-3	-1.5	-3	-1	9	7226
Cn1c(SCC(=O)NCc2ccccc2)nc2ccccc21	-28	2	1.9	6	14	2	8145
CN1CCN(C(=O)c2ccc(CS(=O)(=O)c3c(Cl)cccc3Cl)o2)CC1	-14	-2	2.8	-8	nt	nt	4050
CC1(O)C[C@]2(C)N(O)C3CCCCC3N2O1 (stereo partly drawn)	nt	-5	3.7	nt	7	6	nt
O=C(Nc1ccon1)c1csc2ccccc12	-7	9	5.6	-6	4	8	10732
COc1ccc(C2=NOC(C(=O)Nc3cc(Br)ccc3O)C2)cc1OC (stereo not drawn)	-6	-6	-1.3	2	6	8	10770
Cc1cccc(NP(=O)(Oc2ccccc2F)Oc2ccccc2F)c1C	-8	-22	1.4	-6	-1	-6	2436
O=C(Nc1nc(-c2ccc(F)cc2)cs1)C1CCCO1 (stereo not drawn)	-67	10	4.1	-1	-7	2	2452
Cn1ccsc1=NC(=O)c1ccccc1OC(F)F	-9	6	-0.8	-2	4	4	5122
Cc1ccc(Cn2c(C)c3cnn(CC(=O)NC4CCCC4)c(=O)c3c2C)cc1	-42	5	5.2	6	2	2	5271
CN1CCN(Cc2nc(N)nc(Nc3ccc4c(c3)OCCO4)n2)CC1	-44	3	3.5	-4	12	12	3633
Nc1cccc2c(O)cccc12	-21	-18	14	-4	-4	-8	4117
COc1ccccc1C1=NN(C(=O)c2ccccc2)C(c2ccc(Br)cc2)C1 (stereo not drawn)	nt	-6	0.6	6	0	-6	3328
COc1cc(/C(C)=N/NC(=O)Cc2c(C)[nH][nH]c2=O)ccc1O	-18	nt	nt	0	nt	nt	2135
CSc1nc2ccc(NS(=O)(=O)c3ccc([N+](=O)[O-])cc3)cc2s1	-23	-4	-0.8	-3	-17	-9	6218
CC(=O)NC(Cc1c[nH]c2ccccc12)C(=O)NCc1ccco1 (stereo not drawn)	-19	2	-3.3	-10	-8	-3	3791
COCCNC(=O)Cc1c(C)c2cc3c(cc2oc1=O)OC(C)(C)CC3	-22	2	0.2	-7	-2	-8	2964
COc1ccccc1C(=O)NC(C)c1ccc(-n2ccnc2)cc1 (stereo not drawn)	-17	5	-1.8	0	11	-1	5884
O=c1oc2ccccc2c(Nc2ccccc2)c1[N+](=O)[O-]	-48	-8	-12	-14	4	8	3235
Clc1cccc(Cc2ccc(Cl)nn2)c1	-15	-1	-1.4	0	24	18	4694
O=C(NCC1CCCN1S(=O)(=O)c1cccs1)c1ccccc1 (stereo not drawn)	-11	-3	2.1	-4	6	6	6020

Screening data as filed in PubChem.
